Source: PubChem BioAssay
StopGo FLuc = FMDV 2A StopGo reporter, firefly signal; actives 0.23% (n = 120,000); HEK cells with a luciferase reporter of 2A StopGo recoding; AID 1745856; Potency, µM (titrated, usually from 57.5 µM), for the others: at the top dose signal change, negative = less light; active = well fitted falling curve with a large enough effect; inconclusive = small, poorly fitted or top-dose-only effect; inactive = no such curve, though single readings can be large or run the other way; note: nearly all actives have a fitted effect of over 60% in size; overnight with compound
StopGo RLuc = lowers the Renilla signal of an FMDV 2A StopGo reporter. HEK cells with a luciferase reporter of 2A StopGo recoding. Potency, µM (titrated, usually from 57.5 µM), for the others: top-dose signal change, negative = less light. actives 0.32% (n = 120,000); active means well fitted falling curve with a large enough effect; inconclusive means small, poorly fitted or top-dose-only effect; inactive means no such curve, though single readings can be large or run the other way; note: nearly all actives have a fitted effect of over 55% in size; overnight with compound
The depositor's hits bear a star; [ ] = dose if it differs, or a comment. % is set by controls: 0 for no effect and ±100 for the full control effect; potency is the fitted concentration of half-maximal effect. These rows are one share of the data (hit frequency here may not be typical).

For CCCCOC(=O)c1c(C)oc2ccc(NS(=O)(=O)c3ccc(F)cc3C)cc12 the results were StopGo FLuc -5% and StopGo RLuc 81%[activator].
Cc1cccc(NC(=O)CSc2cn(CC(=O)N3CCC(C)CC3)c3ccccc23)c1C was read as StopGo FLuc -19% and StopGo RLuc -12%.
Screening Cc1cccc(COc2ccc(-c3cc(C(F)(F)F)n4nc(C)cc4n3)cc2)c1 returned StopGo FLuc 13% and StopGo RLuc -7%.
Screening CC(C)c1ccc(N=Cc2cccs2)cc1 returned StopGo FLuc 10% and StopGo RLuc 9%.
Screening O=C(Cc1n[nH]c(=O)c2ccccc12)Nc1cccc(F)c1 returned StopGo FLuc 32%[activator] and StopGo RLuc 5%.
`CN(C)CCNC(=O)Cn1ccc2cc(S(=O)(=O)N3CCCCCC3)ccc21` gave StopGo FLuc -21% and StopGo RLuc 3%.
CC1CCN(S(=O)(=O)N(C)Cc2ccc3c(c2)OCO3)CC1 was read as StopGo FLuc 44%[activator] and StopGo RLuc 89%[activator].
`CCCS(=O)(=O)Nc1ccc2c(c1)CC(=O)N2CC` gave StopGo FLuc 34%[activator] and StopGo RLuc 19%.
COc1ccc(CCNC(=O)c2cc(-c3cc(Cl)ccc3O)n[nH]2)cc1OC was read as StopGo FLuc 33% and StopGo RLuc 21%.
C/C(=N/n1c(C)csc1=NC(C)C)c1ccccc1 was read as StopGo FLuc 14% and StopGo RLuc -10%[1.06 µM].

Of the compounds above, four have a halogen.
For CCCCOC(=O)c1c(C)oc2ccc(NS(=O)(=O)c3ccc(F)cc3C)cc12 the results were StopGo FLuc -5% and StopGo RLuc 81%[activator].
Screening Cc1cccc(COc2ccc(-c3cc(C(F)(F)F)n4nc(C)cc4n3)cc2)c1 returned StopGo FLuc 13% and StopGo RLuc -7%.
Screening O=C(Cc1n[nH]c(=O)c2ccccc12)Nc1cccc(F)c1 returned StopGo FLuc 32%[activator] and StopGo RLuc 5%.
COc1ccc(CCNC(=O)c2cc(-c3cc(Cl)ccc3O)n[nH]2)cc1OC was read as StopGo FLuc 33% and StopGo RLuc 21%.

Additional entries
O=C(CSc1nnc(-c2c[nH]c3ccccc23)o1)N1CCCC1 was read as StopGo FLuc 55%[activator] and StopGo RLuc 17%.
`Cc1oc2cc(OCC(=O)Nc3ccccn3)ccc2c(=O)c1Oc1ccccc1` gave StopGo FLuc 7% and StopGo RLuc -6%.
`Cc1ccc(Cl)cc1N1CCN(Cc2nc3c([nH]2)c(=O)[nH]c(=O)n3C)CC1` gave StopGo FLuc 151%[activator] and StopGo RLuc 5%.
`Cc1nc2ccc(Cl)cc2cc1C(=O)N1CCN(CC(=O)N2CCCCCC2)CC1` gave StopGo FLuc -6% and StopGo RLuc -22%.
`O=C(OCC1CCCO1)c1ccc2c(c1)N(Cc1ccccc1Cl)C(=O)c1ccccc1S2(=O)=O` (centres undefined) gave StopGo FLuc -2% and StopGo RLuc 2%.
Screening Cc1nc(COc2ccc(C(=O)N3CCN(C4CCS(=O)(=O)C4)CC3)cc2)cs1 (centres undefined) returned StopGo FLuc 0% and StopGo RLuc 11%.
Screening Cc1cc(C)cc(N2C(=O)CSC23C(=O)N(CC(=O)NCCc2ccccc2)c2ccccc23)c1 (centres undefined) returned StopGo FLuc 6% and StopGo RLuc -8%.
`Cc1ccc2c(c1)-c1ccccc1C2=O` gave StopGo FLuc 0% and StopGo RLuc -3%.
Screening Cc1ccc(-n2ncc3c(N4CCCCC4)ncnc32)cc1Cl returned StopGo FLuc -64% and StopGo RLuc 15%.
For CCOC(=O)NC(C(=O)OCC)(c1ccc(F)cc1)C(F)(F)F (centres undefined) the results were StopGo FLuc 24% and StopGo RLuc 8%.
For CC(C)Oc1ccc(C(CCN)C2CCCCC2)cc1 (centres undefined) the results were StopGo FLuc inconclusive and StopGo RLuc inconclusive.
`Cc1ccccc1CN1C(=O)C(O)(c2c[nH]c3ccccc23)c2cc(Cl)ccc21` (centres undefined) gave StopGo FLuc inconclusive and StopGo RLuc -17%.
`Cc1ccc(NC(=O)COC(=O)Cn2cnc3c2c(=O)n(C)c(=O)n3C)cc1` gave StopGo FLuc 7% and StopGo RLuc -4%.
Screening CN(C)S(=O)(=O)c1ccc(C(=O)Nc2ccc(-n3nncc3-c3ccccc3)cc2)cc1 returned StopGo FLuc -14% and StopGo RLuc -10%.
`COc1ccc(CNC(=O)CCNS(=O)(=O)c2cccc3nsnc23)cc1` gave StopGo FLuc -3% and StopGo RLuc 3%.
For CCOc1ccc(-n2ccnc2SCC(=O)Nc2nc3ccc(C)cc3s2)cc1 the results were StopGo FLuc -8% and StopGo RLuc -1%.
For CCOC(=O)Cn1nc(C2CC2)c2c(C(F)F)cc(-c3cnn(C)c3C)nc21 the results were StopGo FLuc 10% and StopGo RLuc 9%.
Screening CN(C)C(=O)c1ccc(NCC(=O)N2N=C(c3ccc(Cl)cc3)CC2c2ccco2)cc1 (centres undefined) returned StopGo FLuc 5% and StopGo RLuc -13%.
For O=C(COc1ccccc1)Nc1nn2cc(-c3ccccc3)nc2s1 the results were StopGo FLuc 191%[activator] and StopGo RLuc 12%.
For CCOC(=O)N1CCN(C(C(=O)O)c2c[nH]c3c(OC)cccc23)CC1 (centres undefined) the results were StopGo FLuc inconclusive and StopGo RLuc -8%.
Screening CCCOc1ccc(C(=O)N(Cc2ccc(Cl)cc2)Cc2ccco2)cc1 returned StopGo FLuc 17% and StopGo RLuc 71%[activator].
Cc1nn(CC(=O)NC(C)(C)C)c(C)c1S(=O)(=O)N1CCCC(C(=O)N2CCOCC2)C1 (centres undefined) was read as StopGo FLuc -3% and StopGo RLuc -6%.
`CCOC(=O)Cn1c(=O)n(CC2CCCO2)c2nc(-c3ccc(OC)cc3OC)nc(C(N)=O)c21` (centres undefined) gave StopGo FLuc 18% and StopGo RLuc 16%.
Screening CC(C)(C)NC(=O)/C(C#N)=C\c1ccc(OC(F)F)cc1 returned StopGo FLuc inconclusive and StopGo RLuc inconclusive.
`Cc1nc(C)c(C(=O)C2=C(O)C(=O)N(CCCN(C)C)C2c2ccco2)s1` (centres undefined) gave StopGo FLuc 2% and StopGo RLuc -6%.
For CCOc1ccc(C(=O)NC(C(=O)NOC)C(C)C)cc1 (centres undefined) the results were StopGo FLuc 17% and StopGo RLuc -6%.
For COc1ccc2c(c1)c1c(c(=O)n(Cc3ccccc3)c(=O)n1Cc1cc(C)ccc1C)n2C the results were StopGo FLuc -3% and StopGo RLuc -3%.
For COc1ccc(OC)c(NC(=O)C(CC(C)C)N2Cc3ccccc3C2=O)c1 (centres undefined) the results were StopGo FLuc -3% and StopGo RLuc 30%.
`CCCc1ccc(OCCN)cc1` gave StopGo FLuc 13% and StopGo RLuc 0%.
For Cc1ccc(-c2nn(CCC(=O)Nc3ccc(Cl)c(Cl)c3)c(=O)c3ccccc23)cc1 the results were StopGo FLuc -4% and StopGo RLuc 6%.

An excerpt from above in order of SMILES length, lowest first.
`CCCc1ccc(OCCN)cc1` gave StopGo FLuc 13% and StopGo RLuc 0%.
Screening CCCOc1ccc(C(=O)N(Cc2ccc(Cl)cc2)Cc2ccco2)cc1 returned StopGo FLuc 17% and StopGo RLuc 71%[activator].
For Cc1ccc(-c2nn(CCC(=O)Nc3ccc(Cl)c(Cl)c3)c(=O)c3ccccc23)cc1 the results were StopGo FLuc -4% and StopGo RLuc 6%.

The listing continues.
`CCOC(=O)C(N)c1c(C)nn(-c2cccc(C(F)(F)F)c2)c1C` (centres undefined) gave StopGo FLuc 2% and StopGo RLuc -3%.
O=C(COC(=O)c1cc2ccccc2[nH]1)c1ccc[nH]1 was read as StopGo FLuc 172%[activator] and StopGo RLuc 14%.
Screening COc1ccc(Cl)cc1C(=O)NC1CC(=O)N(c2ccc(F)cc2)C1 (centres undefined) returned StopGo FLuc -2% and StopGo RLuc -5%.
`CC(CNC(=O)c1n[nH]c(=O)c2ccccc12)(c1ccccc1)c1ccccc1` gave StopGo FLuc 10% and StopGo RLuc 5%.
Cn1c(=O)c2ccccc2n2c(CCC(=O)N3CCN(c4cccc(Cl)c4)CC3)nnc12 was read as StopGo FLuc -4% and StopGo RLuc -9%.
CC(C)OCCSc1nnc(-c2nn(Cc3ccccc3)c(=O)c3ccccc23)o1 was read as StopGo FLuc 11% and StopGo RLuc 12%.
Cc1cccc(NC(=O)Nc2ccc(Br)cc2)n1 was read as StopGo FLuc 64%[activator] and StopGo RLuc 15%.
COC(=O)[C@H]1C[C@@]2(n3ccc4ccccc43)c3ccccc3N(S(=O)(=O)c3ccccc3)[C@H]2N1C(=O)CNC1CCCCC1 was read as StopGo FLuc -19% and StopGo RLuc 1%.
`O=C(Nc1nc(-c2ccc(Br)s2)cs1)C1CCN(C(=O)C2CC2)CC1` gave StopGo FLuc inconclusive and StopGo RLuc inconclusive.
COc1ccc(CC(=O)Oc2ccc3cc(Br)ccc3c2)cc1OC was read as StopGo FLuc 25% and StopGo RLuc 14%.
Cc1ccc(CSc2nc3ccc(NC(=O)COc4ccccc4F)cc3s2)cc1 was read as StopGo FLuc -11% and StopGo RLuc -16%.
`Cc1cc(C)c(Cn2c3ccccc3c3cnn(CC(=O)NCc4cccs4)c(=O)c32)c(C)c1` gave StopGo FLuc -3% and StopGo RLuc -9%.
Screening C/C=C/CN(Cc1ccco1)Cc1cccs1 returned StopGo FLuc 0% and StopGo RLuc 8%.
COc1cc(NC(=O)c2nc3ccccc3nc2C)cc(OC)c1OC was read as StopGo FLuc 15% and StopGo RLuc 3%.
Cc1cc(C)n2c(Nc3ccc(Cl)cc3)c(-c3ccsc3)nc2n1 was read as StopGo FLuc 63%[activator] and StopGo RLuc 154%[activator].
`Cc1c(Cl)cccc1-n1c(CCC(=O)O)ccc1-c1cccs1` gave StopGo FLuc -3% and StopGo RLuc 0%.
CC(CNC(=O)Cn1ncc2c3ccccc3n(Cc3cccc(Cl)c3)c2c1=O)c1ccccc1 (centres undefined) was read as StopGo FLuc -8% and StopGo RLuc -1%.
Screening N/C(=N\c1nc2ccccc2o1)NC(=O)c1cccc(Br)c1 returned StopGo FLuc 13% and StopGo RLuc -3%.
Screening O=C(Nc1sc2c(c1C(=O)Nc1cccc(Cl)c1)CCCC2)c1cccs1 returned StopGo FLuc -15% and StopGo RLuc -8%.
For O=C(O)c1cc2ccccc2s1 the results were StopGo FLuc 0% and StopGo RLuc 30%.
CCOc1ccc(S(=O)(=O)N(CC)CC(=O)NC2CC2)cc1Cl was read as StopGo FLuc -2% and StopGo RLuc 4%.
`FC(F)(F)c1cccc(N/N=C/c2cccs2)c1` gave StopGo FLuc 216%[activator] and StopGo RLuc 28%.
For COc1ccc(CNC(=O)c2cnc3sc4cc(OC)ccc4n3c2=O)cc1 the results were StopGo FLuc -7% and StopGo RLuc 5%.
Screening CCn1nc(C(=O)Nc2cccc(S(=O)(=O)NC3=NCCC3)c2)c2ccccc2c1=O returned StopGo FLuc 0% and StopGo RLuc 158%[activator].
`CCOc1ccc(-c2cc(C(=O)NCCc3ccc(OC)c(OC)c3)[nH]n2)cc1` gave StopGo FLuc 3% and StopGo RLuc 2%.
Screening CC(C)c1cnc2c(c1SCC(=O)Nc1cccc(F)c1)c(=O)n(C)c(=O)n2C returned StopGo FLuc -18% and StopGo RLuc 201%[activator].
Cc1ccc2oc(-c3cccc(NC(=O)c4ccccc4[N+](=O)[O-])c3C)nc2c1 was read as StopGo FLuc 153%[activator] and StopGo RLuc 6%.
`Cc1cc(Cl)ccc1NC(=O)CN1c2ccc(S(N)(=O)=O)cc2CC1C` (centres undefined) gave StopGo FLuc -1% and StopGo RLuc 19%.
For COc1cc(/C=N/O)ccc1OC(F)F the results were StopGo FLuc -4% and StopGo RLuc -1%.
For CCOC(=O)c1c(C)c(CCC(=O)NCCN2CCCCC2)c(C)n1C the results were StopGo FLuc -19% and StopGo RLuc -15%.
For CC(=O)N1CCc2cc(CNC(=O)c3ccccc3Br)ccc21 the results were StopGo FLuc 0% and StopGo RLuc 0%.
CCc1cccc(C)c1NC(=O)CCCN1C(=O)C(c2ccccc2)Oc2cccnc21 (centres undefined) was read as StopGo FLuc -10% and StopGo RLuc -6%.
For c1ccc2c(CCNCC3CCCCC3)c[nH]c2c1 the results were StopGo FLuc -8% and StopGo RLuc -11%.
`Cc1c(-c2cccc(Cl)c2)nn2c1NC(=O)CC2C(=O)Nc1ccc2c(c1)OCO2` (centres undefined) gave StopGo FLuc 0% and StopGo RLuc 11%.
Screening Cc1cc(C(=O)N2CCCCCC2)cc(S(=O)(=O)N2CCC(C)CC2)c1C returned StopGo FLuc 15% and StopGo RLuc 113%[activator].
`COc1ccc(NCc2cc3cc4c(cc3n(CC(=O)Nc3ccc(F)cc3)c2=O)OCCO4)cc1` gave StopGo FLuc 11% and StopGo RLuc 14%.
`CC(=O)N/C(=C/c1cccnc1)C(=O)O` gave StopGo FLuc -4% and StopGo RLuc -16%.
Screening O=C(CCc1ncc(-c2ccc(F)cc2)o1)N1CCN(S(=O)(=O)c2ccc(F)cc2)CC1 returned StopGo FLuc 2% and StopGo RLuc -14%.
CSc1ncc(Cl)c(C(=O)N(Cc2ccc(C(C)C)cc2)C2CCS(=O)(=O)C2)n1 (centres undefined) was read as StopGo FLuc -11% and StopGo RLuc 2%.
CCOC(=O)C(NC(=O)C(C)Oc1ccc(Cl)cc1Cl)C(=O)OCC (centres undefined) was read as StopGo FLuc -7% and StopGo RLuc -1%.
`N#Cc1ccc(N2CCN(CCCOCC(F)(F)F)CC2)c([N+](=O)[O-])c1` gave StopGo FLuc -8% and StopGo RLuc -5%.

Structures above with a tert-butyl group, in the order listed:
Cc1nn(CC(=O)NC(C)(C)C)c(C)c1S(=O)(=O)N1CCCC(C(=O)N2CCOCC2)C1 (centres undefined) was read as StopGo FLuc -3% and StopGo RLuc -6%.
Screening CC(C)(C)NC(=O)/C(C#N)=C\c1ccc(OC(F)F)cc1 returned StopGo FLuc inconclusive and StopGo RLuc inconclusive.
